Vaccinia inh = blocks a specific stage of Vaccinia orthopoxvirus infection, primary screen, cell-based, single point. Vaccinia-infected cells, mCherry/Venus stage reporter fluorescence; stronger effect = lower value; some inactives read as strong as hits. actives 0.01% (n = 89,000). activity change (mCherry), % (no concentration beside the values);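 active = mCherry past -33% and 40 or more points under the early reporter, replicates agreeing; inconclusive = past -33% without that gap or agreement; tested in A549 cells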;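 note: scaled between vehicle wells and reference inhibitor wells; 23 nL library stock went into each well; one replicate is shown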
Vaccinia inh Venus = second read-out of Vaccinia inh, no call of its own (marks repeat the call); activity change (Venus), %; measured here: Venus reporter, other viral stage;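 negative = less Venus signal; first of two replicates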
* hit, by the source's call; ? = inconclusive; / = not tested or not shown. The list is partial, so the mix of outcomes need not match the whole.

Values in the order – Vaccinia inh	Vaccinia inh Venus
- N#C[C@H]1[C@H](c2ccccc2-c2ccc(F)cc2)[C@@H](CO)N1C(=O)Cc1cccnc1
  18	5
- COc1ccccc1C#Cc1ccc([C@@H]2[C@H](C#N)N(C(=O)C3CCCCC3)[C@H]2CO)cc1
  ?	/
- CC(=O)N(C)C[C@@H]1Oc2ncc(C#CC3(O)CCCC3)cc2C(=O)N([C@H](C)CO)C[C@H]1C
  17	7
- CCNC(=O)C[C@@H]1CC[C@H]2[C@@H](COC[C@@H](O)CN2C(=O)c2cc(Cl)cc(Cl)c2)O1
  15	1
- O=C(C[C@H]1C=C[C@@H](NC(=O)c2ccccc2)[C@@H](CO)O1)NCc1ccncn1
  -7	-1
- C[C@@H]1CN([C@@H](C)CO)C(=O)Cc2cc(N(C)C)ccc2O[C@H]1CN(C)S(=O)(=O)c1ccccc1
  3	-4
- C[C@@H]1CCCCO[C@@H](CN(C)Cc2ccc(C(F)(F)F)cc2)[C@@H](C)CN([C@H](C)CO)C(=O)c2cc(NC(=O)CCC(F)(F)F)ccc2O1
  -27	-16
- C/C=C/c1ccc([C@@H]2[C@@H](CO)N(C(C)=O)[C@@H]2CNC(=O)CC2CC2)cc1
  0	11
- COCC(=O)N1CC(=O)N2[C@H](C1)[C@@H](c1ccc(-c3ccccc3F)cc1)[C@@H]2CO
  0	-2
- Cc1cccc(-c2ccc([C@@H]3[C@H](CO)N4CCCCN(S(=O)(=O)c5cccc(C)c5)C[C@@H]34)cc2)c1
  ?	/
- C[C@@H]1CN([C@H](C)CO)C(=O)c2cc(NS(=O)(=O)c3cccs3)ccc2O[C@H]1CN(C)Cc1ccc(C(F)(F)F)cc1
  -17	-26
- C[C@H]1CN([C@@H](C)CO)C(=O)c2cc(N(C)C)ccc2O[C@@H]1CN(C)Cc1ccccc1
  6	6
- CN1CCCCN2[C@H](C1)[C@@H](c1ccc(C#Cc3ccccc3F)cc1)[C@@H]2CO
  ?	/
- C[C@@H]1CCCCO[C@H](CN(C)C(=O)Nc2ccccc2)[C@H](C)CN([C@H](C)CO)C(=O)c2cc(NC(=O)Nc3ccccc3)ccc2O1
  3	9
- COCC(=O)Nc1ccc2c(c1)[C@H]1C[C@H](CC(=O)NC3CCCC3)O[C@@H](CO)[C@H]1O2
  4	3
- CO[C@H]1CN(C)C(=O)c2cc(NC(=O)NC3CCCCC3)ccc2OC[C@@H](C)NC[C@H]1C
  9	5
- O=C(c1ccncc1)N1CC2(C1)[C@H](c1ccccc1)[C@@H](CO)N2CC1CCCC1
  -1	-1
- Cc1noc(C)c1S(=O)(=O)Nc1cccc2c1O[C@H](CN(C)S(=O)(=O)c1ccc(Cl)cc1)[C@H](C)CN([C@H](C)CO)C2=O
  -12	-16
- C[C@@H]1CN([C@H](C)CO)C(=O)c2cc(NC(=O)C3CCCCC3)ccc2O[C@@H](C)CCCCO[C@@H]1CN(C)C(=O)CCC(F)(F)F
  -2	3
- C[C@@H]1CN([C@H](C)CO)C(=O)c2cccc(NS(=O)(=O)c3ccc(Cl)cc3)c2O[C@H]1CN(C)Cc1ccncc1
  7	9
- CC(C)NC(=O)Nc1ccc2c(c1)CC(=O)N([C@@H](C)CO)C[C@H](C)[C@@H](CN(C)Cc1ccccc1)O2
  5	4
- CC(C)NC(=O)N(C)C[C@H]1Oc2ncc(C#CCc3ccccc3)cc2C(=O)N([C@H](C)CO)C[C@@H]1C
  19	21
- O=C(C[C@@H]1CC[C@@H]2[C@H](COC[C@H](O)CN2C(=O)Nc2ccc(Cl)c(Cl)c2)O1)NCc1ccc(Cl)cc1
  ?	/
- CC(C)NC(=O)N1CC(=O)N2[C@@H](CO)[C@@H](c3ccc(C#CCN(C)C)cc3)[C@@H]2C1
  12	2
- Cc1ccc(-c2ccc3c(c2)O[C@H](CN(C)Cc2ccccc2)[C@H](C)CN([C@H](C)CO)S3(=O)=O)cc1
  ?	/
- CCCNC(=O)N1C[C@@H](O)COC[C@H]2O[C@@H](CC(=O)OC)CC[C@@H]21
  9	3
- COCC(=O)Nc1ccc2c(c1)[C@@H]1C[C@H](CC(=O)N[C@H](C)c3ccccc3)O[C@H](CO)[C@@H]1O2
  10	4
- COCC#Cc1ccc2c(c1)O[C@@H](CN(C)C(C)=O)[C@@H](C)CN([C@@H](C)CO)S2(=O)=O
  14	9
- C[C@H]1CN([C@@H](C)CO)C(=O)Cc2cc(NC(=O)Nc3cccc4ccccc34)ccc2O[C@H]1CN(C)C(=O)Nc1ccc(C(F)(F)F)cc1
  -13	-8
- CC=Cc1ccc2n(c1=O)C[C@H]1[C@H](CO)[C@@H](C(=O)NCCc3ccccc3)N(C(=O)CC)[C@@H]21 (mixture of isomers)
  4	18
- Cc1noc(C)c1S(=O)(=O)N(C)C[C@@H]1OCCCC[C@H](C)Oc2ccc(NC(=O)CCCN(C)C)cc2C(=O)N([C@H](C)CO)C[C@H]1C
  7	7
- CC=Cc1ccc2n(c1=O)C[C@H]1[C@H](CO)[C@@H](C(=O)N[C@@H](C)c3ccccc3)[C@@H]2N1Cc1ccccc1 (mixture of isomers)
  -2	-1
- C[C@@H]1CN([C@@H](C)CO)C(=O)c2cc(NC(=O)Nc3ccc(F)cc3)ccc2O[C@H]1CN(C)Cc1ccc(C(F)(F)F)cc1
  ?	/
- C[C@@H]1CN([C@H](C)CO)C(=O)c2cc(-c3cccc(F)c3)cnc2O[C@@H]1CN(C)S(=O)(=O)c1cccc(F)c1
  -11	-11
- COc1ccc(S(=O)(=O)Nc2ccc3c(c2)C(=O)N([C@@H](C)CO)C[C@@H](C)[C@H](CN(C)S(=O)(=O)c2ccc(F)cc2)OCCCC[C@@H](C)O3)cc1
  ?	/
- C[C@@H]1CN([C@@H](C)CO)S(=O)(=O)c2ccc(-c3ccccc3)cc2O[C@H]1CN(C)C(=O)Cc1ccccc1
  -33	-28
- O=C(NCC[C@H]1CC[C@H](NS(=O)(=O)c2ccc(Cl)cc2)[C@H](CO)O1)c1ccccc1F
  -10	-11
- COc1ccc(S(=O)(=O)N(C)C[C@@H]2Oc3ncc(/C=C/c4ccccc4)cc3C(=O)N([C@@H](C)CO)C[C@@H]2C)cc1
  ?	/
- CO[C@H]1CN(C)C(=O)c2ccc(NC(=O)c3ccccc3F)cc2OC[C@@H](C)N(C(=O)c2ccccc2F)C[C@H]1C
  -2	2
- O=C(C[C@@H]1CC[C@H]2[C@@H](COC[C@H](O)CN2C(=O)c2cnccn2)O1)N1CCN(c2ccccc2)CC1
  -3	6
- O=C(C[C@@H]1CC[C@@H](NC(=O)C2CC2)[C@H](CO)O1)NCc1ccccc1Cl
  5	0
- CN(C)C(=O)C[C@@H]1CC[C@H]2[C@@H](COc3ccc(NC(=O)C4CCOCC4)cc3C(=O)N2C)O1
  12	10
- C[C@H]1CN([C@@H](C)CO)S(=O)(=O)c2ccc(-c3ccccc3)cc2O[C@@H]1CN(C)C
  -17	-10
- C[C@@H]1CN([C@H](C)CO)C(=O)Cc2cc(NC(=O)Nc3cccc4ccccc34)ccc2O[C@H]1CN(C)CC1CCCCC1
  -3	-9
- CC(C)CC#Cc1ccc2c(c1)O[C@@H](CN(C)Cc1cccnc1)[C@H](C)CN([C@H](C)CO)S2(=O)=O
  ?	/
- COc1ccccc1C#Cc1ccc2c(c1)[C@H]1[C@H](CCN1C(=O)c1cccc(F)c1)[C@H](CO)N2
  2	-1
- C[C@H]1CCCCO[C@H](CN(C)C(=O)c2ccncc2)[C@@H](C)CN([C@@H](C)CO)C(=O)c2cc(NS(=O)(=O)c3ccc(Cl)cc3)ccc2O1
  25	9
- CC(C)NC(=O)NCC[C@H]1CC[C@H](NC(=O)c2ccc(F)cc2)[C@H](CO)O1
  3	3
- COc1ccc(C#Cc2ccc([C@H]3[C@H]4CN(C(=O)NC(C)C)CC(=O)N4[C@H]3CO)cc2)cc1
  ?	/
- Cc1cc(C(=O)Nc2cccc3c2O[C@H](CN(C)S(C)(=O)=O)[C@H](C)CN([C@@H](C)CO)C3=O)n(C)n1
  36	14
- COc1ccc(CN(C)C[C@@H]2OCCCC[C@@H](C)Oc3ccc(NS(=O)(=O)c4ccc(Cl)cc4)cc3C(=O)N([C@@H](C)CO)C[C@H]2C)cc1
  ?	/
- CN(C)C(=O)c1ccc(-c2ccc3c(c2)[C@@H]2[C@@H](CCN2C(=O)C2CCOCC2)[C@H](CO)N3C)cc1
  12	11
- OC[C@H]1[C@H](c2ccc(-c3ccc(F)cc3)cc2)[C@H]2CN(CCC(F)(F)F)CCCCN21
  ?	/
- O=C(CN1CCOCC1)N1CCCCN2[C@H](CO)[C@H](c3ccc(C#Cc4ccccc4)cc3)[C@H]2C1
  -30	-26
- C[C@H](CO)N1C[C@H](C)[C@H](CN(C)S(=O)(=O)c2ccc(F)cc2)OCc2ccccc2-c2ccccc2C1=O
  -7	-3
- C[C@@H]1CN([C@@H](C)CO)S(=O)(=O)c2ccc(C#CC3(O)CCCC3)cc2O[C@@H]1CN(C)C(=O)c1ccccc1
  10	2
- CCS(=O)(=O)Nc1ccc2c(c1)C(=O)N(C)[C@@H]1CC[C@H](CC(=O)N3CCCCC3)O[C@@H]1CO2
  4	8
- COc1ccc(S(=O)(=O)Nc2cccc3c2O[C@@H](CN(C)S(=O)(=O)c2cn(C)cn2)[C@@H](C)CN([C@H](C)CO)C3=O)cc1
  27	18
- Cc1ccc(S(=O)(=O)Nc2ccc3c(c2)C(=O)N([C@@H](C)CO)C[C@@H](C)[C@@H](CN(C)C(=O)NC2CCCCC2)OCCCC[C@@H](C)O3)cc1
  -33	-24
- C[C@@H]1CN([C@H](C)CO)C(=O)c2cc(NS(=O)(=O)c3ccc(F)cc3)ccc2O[C@H]1CN(C)CC1CC1
  -9	-18

The last 2 entries of the section before are carried over, then new ones follow:
Values in the order – Vaccinia inh	Vaccinia inh Venus
- Cc1ccc(S(=O)(=O)Nc2ccc3c(c2)C(=O)N([C@@H](C)CO)C[C@@H](C)[C@@H](CN(C)C(=O)NC2CCCCC2)OCCCC[C@@H](C)O3)cc1
  -33	-24
- C[C@@H]1CN([C@H](C)CO)C(=O)c2cc(NS(=O)(=O)c3ccc(F)cc3)ccc2O[C@H]1CN(C)CC1CC1
  -9	-18
- Cc1noc(C)c1NC(=O)Nc1ccc2c(c1)C(=O)N(C)[C@@H]1CC[C@H](CC(=O)N[C@H]3CCN(Cc4ccccc4)C3)O[C@H]1CO2
  -4	1
- COc1ccc(NC(=O)Nc2ccc3c(c2)C(=O)N([C@@H](C)CO)C[C@H](C)[C@H](CN(C)CC2CCCCC2)O3)cc1
  -7	-5
- CC(C)C#Cc1cnc2c(c1)C(=O)N([C@H](C)CO)C[C@@H](C)[C@@H](CN(C)C(=O)Nc1ccccc1F)O2
  12	6
- Cc1ccc(S(=O)(=O)Nc2ccc3c(c2)C(=O)N([C@@H](C)CO)C[C@@H](C)[C@@H](CN(C)C(=O)Nc2c(C)noc2C)OCCCC[C@@H](C)O3)cc1
  26	15
- CCCN1C[C@H](C)[C@H](OC)CN(C)C(=O)c2cc(NC(=O)CC(F)(F)F)ccc2OC[C@H]1C
  -10	-1
- CC(C)NC(=O)Nc1ccc2c(c1)C(=O)N([C@H](C)CO)C[C@H](C)[C@H](CN(C)S(C)(=O)=O)OCCCC[C@@H](C)O2
  20	9
- COc1ccc(NC(=O)N2CC(=O)N3[C@H](CO)[C@H](c4ccc(-c5ccc(C)cc5)cc4)[C@@H]3C2)cc1
  -10	-7
- CO[C@@H]1CN(C)C(=O)c2ccc(NC(=O)C3CCC3)cc2OC[C@@H](C)N(Cc2nccs2)C[C@@H]1C
  -14	-15
- O=C(NCC[C@H]1CC[C@@H](NC(=O)c2ccccc2F)[C@@H](CO)O1)c1ccc2c(c1)OCO2
  15	9
- Cc1ccc(S(=O)(=O)N[C@H]2CC[C@@H](CCn3cc(C4(O)CCCC4)nn3)O[C@@H]2CO)cc1
  -18	-12
- COc1ccc(S(=O)(=O)N(C)C[C@@H]2Oc3ccc(NC(=O)Nc4ccc5c(c4)OCO5)cc3CC(=O)N([C@H](C)CO)C[C@H]2C)cc1
  22	19
- O=C(C[C@H]1CC[C@@H](NC(=O)C2CCOCC2)[C@H](CO)O1)NCc1ccccc1Cl
  -3	-3
- O=C(N[C@H]1CC[C@H](CCNS(=O)(=O)c2ccc(Cl)cc2)O[C@H]1CO)c1cnccn1
  -7	-4
- COC(=O)C[C@@H]1CC[C@H]2[C@@H](COC[C@@H](O)CN2C(=O)Nc2ccccc2OC)O1
  0	-3
- CO[C@@H]1CN(C)C(=O)c2ccc(NS(C)(=O)=O)cc2OC[C@@H](C)N(C(=O)CN(C)C)C[C@H]1C
  0	9
- O=C(C[C@H]1CC[C@H]2[C@@H](COC[C@H](O)CN2C(=O)Nc2ccccc2)O1)NCc1ccccc1F
  1	2

9 compounds already listed, arranged by SMILES length, lowest first:
Values in the order – Vaccinia inh	Vaccinia inh Venus
- O=C(C[C@H]1CC[C@@H](NC(=O)C2CCOCC2)[C@H](CO)O1)NCc1ccccc1Cl
  -3	-3
- O=C(N[C@H]1CC[C@H](CCNS(=O)(=O)c2ccc(Cl)cc2)O[C@H]1CO)c1cnccn1
  -7	-4
- Cc1ccc(S(=O)(=O)N[C@H]2CC[C@@H](CCn3cc(C4(O)CCCC4)nn3)O[C@@H]2CO)cc1
  -18	-12
- O=C(C[C@H]1CC[C@H]2[C@@H](COC[C@H](O)CN2C(=O)Nc2ccccc2)O1)NCc1ccccc1F
  1	2
- CO[C@@H]1CN(C)C(=O)c2ccc(NS(C)(=O)=O)cc2OC[C@@H](C)N(C(=O)CN(C)C)C[C@H]1C
  0	9
- COc1ccc(NC(=O)Nc2ccc3c(c2)C(=O)N([C@@H](C)CO)C[C@H](C)[C@H](CN(C)CC2CCCCC2)O3)cc1
  -7	-5
- CC(C)NC(=O)Nc1ccc2c(c1)C(=O)N([C@H](C)CO)C[C@H](C)[C@H](CN(C)S(C)(=O)=O)OCCCC[C@@H](C)O2
  20	9
- COc1ccc(S(=O)(=O)N(C)C[C@@H]2Oc3ccc(NC(=O)Nc4ccc5c(c4)OCO5)cc3CC(=O)N([C@H](C)CO)C[C@H]2C)cc1
  22	19
- Cc1ccc(S(=O)(=O)Nc2ccc3c(c2)C(=O)N([C@@H](C)CO)C[C@@H](C)[C@@H](CN(C)C(=O)Nc2c(C)noc2C)OCCCC[C@@H](C)O3)cc1
  26	15

High-throughput results as filed in PubChem.
